Bioassay records from PubChem BioAssay.
Caspase-1 inhib: allosteric or competitive inhibitors of human caspase-1; Caspase-1 enzyme, Ac-WEHD-AFC fluorogenic rate; Potency, µM (highest dose often 57.5 µM), for inactives: at the top dose activity change, negative = inhibition, hits mostly inhibitors; 75,000 tested, 0.03% active; AID 900;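 also: potency is read from the fitted curve at half-maximal effect; plate controls were vehicle for no effect and no substrate for full effect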
USP2a inh: blocks human ubiquitin-specific protease USP2a | Potency, µM (series often up to 38.3 µM), inactives show at the top dose activity change, negative = inhibition, actives largely listed as inhibitors | O75604 | 60,000 tested, 0.1% active | USP2a enzymatic assay, qHTS inhibition;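 also: potency is read from the fitted curve at half-maximal effect; nearly all actives have a fitted effect of over 60% in size; plate controls were DMSO for no effect and NEM full inhibition control for full effect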
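Coupled readout: USP2-cleaved Ub-PLA2 (20nM final) turns over NBD C6-HPC (20uM final), Ex 460nm/Em 535nm after 2.5 h, time-zero read flagging artifacts. Enzyme (20nM final, pH 8.0 Tris) given 30 min RT with compound first; NEM defines full inhibition.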
Luciferase inh: inhibitors of firefly luciferase; purified firefly luciferase, luminescence, 8 min; Potency, µM (series often up to 57.1 µM), for the others: at the top dose activity change, negative = inhibition, usual class: inhibitors; 72,000 tested, 2.2% active; also: potency is read from the fitted curve at half-maximal effect; % is scaled to controls: 0 for no effect and ±100 for the full control effect; nearly all actives have a fitted effect of over 40% in size
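Substrate buffer containing 10 uM ATP (pH 7.2 imidazole, Mg2+, KCl, detergent, BSA) is dispensed, compound pinned in, then luciferase/luciferin detector mix added. After 8 min at ambient temperature, light output is measured.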
HADH2 inhib: blocks human hydroxyacyl-CoA dehydrogenase type II; Q99714; recombinant HADH2, NADH fluorescence, beta-hydroxybutyryl-CoA; Potency, µM (titrated, usually from 57.1 µM), for inactives: at the highest dose activity change, negative = inhibition, hits mostly inhibitors; 73,000 tested, 3.4% active; also: potency is read from the fitted curve at half-maximal effect; % is scaled to controls: 0 for no effect and ±100 for the full control effect; nearly all actives have a fitted effect of over 60% in size; many of its hits are not listed in these tables
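His-tagged recombinant enzyme from E. coli, 20 nM, preincubated 15 min RT with compound; reaction started with 1 mM NAD+ and 90 uM beta-hydroxybutyryl-CoA in 100 mM Tris-HCl pH 9.0. NADH fluorescence (ex 360/em 450) read over 4 min; last-minus-first difference.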
Fluorescein autfl: fluorescein region autofluorescence; Compound autofluorescence, 480/540 nm, fluorescein-equivalent; hits give high values; max fluorescein-equivalent concentration, M; 59,000 tested, 0.91% active; AID 593; in the data active = max fluorescein-equivalent concentration above about 10 nM; inconclusive = between about 1.1 nM and that limit
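Spectral profiling of library compounds in the fluorescein window (480 nm excitation, 540 nm emission) after 15 min at room temperature in pH 8.0 Tris (100 mM). Values are dye-equivalent concentrations.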
Caspase-7 inhib: allosteric or competitive inhibitors of human caspase-7; Potency, µM (series often up to 57.5 µM), for the others: at the top dose activity change, negative = inhibition, actives largely listed as inhibitors; recombinant caspase-7, Ac-DEVD-AFC fluorescence rate; P55210; 75,000 tested, 0.02% active; active = well fitted inhibition curve with a large enough effect in the main read-out, with a control signal flat, not every such curve was filed as active; inconclusive = small, poorly fitted or top-dose-only effect, or a change in a side signal; also: potency is read from the fitted curve at half-maximal effect; % of control where 0% means no effect
Rhodamine autofl: rhodamine region autofluorescence. Rhodamine-region fluorescence, 547/598 nm, Tris buffer; hits give high values. max dye-equivalent concentration, M. 59,000 tested, 0.05% active. AID 594; in the data active = max dye-equivalent concentration above about 11 nM; inconclusive = between about 1.1 nM and that limit
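Compounds in 100 mM Tris buffer, pH 8.0, were incubated 15 min at room temperature, then read at 547 nm excitation and 598 nm emission. Fluorescence was normalized against a per-plate six-point rhodamine standard curve as dye-equivalent concentration.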
ERK AVP block: vasopressin-driven ERK pathway inhibition; HEK293-V1b, vasopressin-stimulated pERK AlphaScreen; Potency, µM (doses to about 57.5 µM), without a hit: top-dose activity, negative = inhibition, hits mostly inhibitors; 72,000 tested, 0.99% active; also: potency is read from the fitted curve at half-maximal effect; % is scaled to controls: 0 for no effect and ±100 for the full control effect; nearly all actives have a fitted effect of over 55% in size
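Phosphorylated ERK1/2 detected via AlphaScreen bead proximity in lysates of V1b-expressing HEK293 cells given 25 nM vasopressin for 5 min after 30 min compound exposure (37 °C). AC50 from Hill equation; basal DMSO 0%, vasopressin 100%.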
Texas Red fluor: Texas Red region autofluorescence | max dye-equivalent concentration, M | AID 587 | 59,000 tested, 0.06% active | Compound fluorescence, Texas Red channel, 547/618 nm; hits give high values; in the data active = max dye-equivalent concentration above about 10 nM; inconclusive = between about 1.1 nM and that limit
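Fluorescence at ex 547/em 618 nm, normalized against an on-plate Texas Red standard series to give dye-equivalent concentration per compound concentration. Buffer 100 mM Tris, pH 8.0; 15 min RT incubation before CCD imaging.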
Tau fil binding: tau filament binding; recombinant tau filaments, thioflavin S fluorescence, 15 h; filaments grown with octadecylsulfate alongside compound; Potency, µM (doses to about 57.1 µM), inactives show at the highest dose activity change, negative = inhibition; 71,000 tested, 2% active; AID 596;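 also: potency is read from the fitted curve at half-maximal effect; % is scaled to controls: 0 for no effect and ±100 for the full control effect; actives lower thioflavin S fluorescence by blocking filaments or displacing dye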
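His-tagged recombinant human tau (exons 2, 3 and 10 included), 1 uM, was induced to fibrillize by 30 uM sodium octadecylsulfate with compound present. After 15 h at 37 C, thioflavine S fluorescence (ex 450, em 510 nm) was read.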
Numbers without * were called inactive; i = inactive; ? = inconclusive; · = not tested or not shown; & = joins results of further samples; ! = not confirmed by another sample; [ ] = remark or other dose. Unless noted, calls follow the shape of the dose curve; as a rule, active = well fitted curve in the direction sought with a large enough effect; inconclusive = small, poorly fitted or top-dose-only effect, or another doubt; inactive = no such curve, though single readings can be large; an effect the other way counts as inactive or inconclusive. The list is partial (hit frequency here may not be typical).

Order of values: Rhodamine autofl | Caspase-1 inhib | Luciferase inh | HADH2 inhib | USP2a inh | Fluorescein autfl | Caspase-7 inhib | Texas Red fluor | Tau fil binding | ERK AVP block
O=[N+]([O-])c1ccc(F)cc1F
    · | -2% | · | 0% | · | · | -1% | · | 15% | 10%
O=S1(=O)C=C(Sc2nnc(-c3ccccc3)o2)c2ccccc21
    i | 1% | -24% | ? | 5% | ? | -5% | ? | 7% | ?
COc1cc(CC(=O)O)c(C(C)=O)cc1OC
    · | -1% | · | -4% | · | · | 1% | · | · | ·
CCC(CC)(CC(=O)Nc1cccc(/C=C/c2nc(C3CCC3)cs2)c1)C(=O)O
    · | 0% | · | 13µM* | · | · | -3% | · | · | -24%
COc1ccc(-c2cn3ccccc3n2)cc1OC
    i | -1% | 3.2µM* | ? | -3% | i | 0% | i | 11% | ?
O=C(c1csnn1)N1CCC2(CCCN(C(c3ccccc3)c3ccccc3)C2)CC1
    i | -4% | 1%[11.4 µM] | -2% | 134%[activator] | i | -3% | i | 15% | 1%
N=c1n(CCN2CCOCC2)c2ccccc2n1CC(=O)c1ccc(Cl)c(Cl)c1
    i | -5% | 2% | 10% | 10% | ? | -3% | i | 151% | ?
C[C@@H](c1ccccc1)N1C(=O)[C@H]2[C@H]3[C@H](O)[C@H](O)C/C(=N/NC(=O)OCc4ccccc4)[C@H]3CC[C@@H]2C1=O
    · | 3%[11.5 µM] | 1%[11.4 µM] | 4%[11.4 µM] | · | · | -1%[11.5 µM] | · | · | 1%[11.5 µM]
O=C(NC1CCCC1)C(c1ccco1)N(Cc1ccccc1)C(=O)c1csnn1 (stereo not given)
    i | 2% | -1% | 18% | 5% | i | 1% | i | -10% | ?
CC(=O)OCCC(C)C
    · | -3% | · | -1% | · | · | 0% | · | 0% | 17%
COc1nc(/C(N)=N/O)nc(N2CCCCC2)n1
    i | -1% | 2% | -3% | 0% | i | 0% | i | 2% | -18%
CC1CCCC(C)N1Cc1cn2ccccc2n1 (stereo not given)
    i | 1% | 0% | 1% | -2% | i | -1% | i | 6% | -24%
O=CNc1ccccc1
    · | -1% | · | -2% | · | · | -1% | · | -29% | 11%
Fc1ccc(-c2cc3nc(-c4ccccc4)cc(N4CCOCC4)n3n2)cc1
    i | -5% | -1% | 10µM* | 10% | i | -5% | i | 11% | -1%
Cc1ccc2cccnc2c1
    · | 1% | · | -1% | · | · | 0% | · | 0% | -12%
O=C(Nc1ccccc1)c1ccccc1O
    · | -9% | 20µM* | -7% | 5% | · | -2% | · | 2% | -25%
CCCn1c(=N)n(CC(=O)C(C)(C)C)c2ccccc21
    i | -1% | 4% | 20% | -2% | i | 1% | i | -2% | ?
C=CCN1CCc2c(cc(O)c(O)c2Cl)C(c2cccc(C)c2)C1 (stereo not given)
    · | -1% | · | 0.25µM* | · | · | -1% | · | · | -14%
NC=O
    · | -3% | · | -3% | · | · | -2% | · | 7% | 4%
CC(C)(O)C(=O)O
    · | -3% | · | -1% | · | · | -1% | · | 14% | 14%
CCN(CCNC(=O)C1CCN(S(=O)(=O)CC)CC1)c1ccccc1
    i | 0% | 2% | 5% | 2% | i | 0% | i | 4% | 5%
Cc1cccc(C)c1O
    · | -1% | · | -6% | · | · | -1% | · | 3% | 20%
Nc1ccc(S(=O)(=O)O)cc1
    · | -4% | · | -5% | · | · | -8% | · | 14% | -7%
COC(=O)CCCCC(=O)OC
    · | -5% | · | -8% | · | · | -1% | · | 0% | 3%
C/C(Sc1nnc(Cc2ccccc2)o1)=C(/O)c1ccccc1
    i | -2% | 8% | -6% | 8% | i | -1% | i | -1% | -3%
C(=N\n1cnnc1)/c1cn(-c2cccs2)nc1-c1ccccc1
    i | -5% | 25µM* | -15% | 7% | i | -2% | i | 81% | -5%
Cc1cccc(C)c1NC(=O)CSc1nnc(-c2ccco2)n1N
    i | -3% | 6% | 16% | 25% | i | -2% | i | -2% | -1%
CC1=CC(C)(C)Nc2ccccc21
    · | -4%&-4% | · | ? | · | · | 2%&-3% | · | 16µM*! | 11%&-13%
O=c1c2c(nc3c(-c4ccccc4)c[nH]n13)CCCC2
    · | -3% | 0% | -25% | 3% | · | 0% | · | 1% | -16%
COC(=O)CN(c1ccc(OC)c(OC)c1)S(C)(=O)=O
    i | 1% | 2% | 5% | -1% | i | 0% | ? | -15% | -17%
CCN(CC)CCc1c(C)[nH]c(C(=O)OCc2ccccc2)c1C
    i | -2% | -1% | 2% | 4% | i | -1% | i | -1% | -22%
c1ccc(C2C3=C(Nc4ncnn42)c2ccccc2CCC3)cc1 (stereo not given)
    i | 2% | 0% | 6% | 0% | ? | 1% | i | 28% | 15%
C[C@@H]([C@H](O)c1ccc(O)cc1)N1CCC(Cc2ccccc2)CC1
    i | -2% | 4% | 2% | 11%[17.1 µM] | i | 1% | ? | ? | -6%
NS(=O)(=O)c1cc2c(cc1Cl)NC(C1C[C@H]3C=C[C@@H]1C3)NS2(=O)=O (stereo not given in full)
    i | · | 0%[25.5 µM] | · | · | i | · | i | · | ·
CSc1nnc2c(n1)[nH]c1c(C)cccc12
    · | -5% | -3% | 6% | 5% | · | -1% | · | 18% | 5%
Nc1ccc(S(=O)(=O)Nc2ccc(Cl)nn2)cc1
    i | 7% | 3%[25.5 µM] | 7%[25.6 µM] | -10% | ? | -1% | i | -19%[25.6 µM] | 0%
Cc1ccc(-c2ccc(=O)n(CC(=O)Nc3cccc(C(=O)N4CCN(C)CC4)c3)n2)cc1
    i | 0% | 1% | -11% | 24% | ? | -1% | i | -9% | -5%
O=C1C(=O)c2ccccc2C(O)=C1C1CCC(c2ccc(Cl)cc2)CC1 (stereo not given)
    i | -1% | 10%[25.5 µM] | 7%[25.6 µM] | 11% | i | -2% | i | -18%[25.6 µM] | -32%
O=C(Nc1ccccc1)N1C(=O)C2(OCCO2)c2ccccc21
    i | -3% | -8% | -8% | -3% | i | -3% | i | -2% | 13%
CCN(CC)CCOCCOC(=O)C1(c2ccccc2)CCCC1
    i | 0% | -3% | 6% | -25% | ? | -1% | i | ? | 6%
CC(C[N+](C)(C)C)OC(N)=O (stereo not given)
    i | 4% | 1%[25.5 µM] | · | -14% | i | -1% | i | · | 1%
CC(=O)N1CCc2cc(C(=O)CN3CCN(C(=O)c4ccco4)CC3)ccc21
    · | -5% | 2% | -17% | · | · | -13% | · | -10% | ·
c1ccc(-c2cn3c4c(sc3n2)CCCC4)cc1
    i | -5% | 0.4µM* | -4% | -10% | ? | 8% | i | 42% | -13%
O=C(NCC(=O)N(CC1CCCO1)C(C(=O)NC1CCCC1)c1ccc(F)cc1)c1ccco1 (stereo not given)
    i | 0% | 2% | 11% | 8% | ? | -1% | i | -1% | -9%
COc1ccc(NS(=O)(=O)c2cc(C)ccc2NC(=O)c2cc(C)oc2C)cc1
    i | 1% | -15% | ? | 26% | ? | 3% | ? | 1% | ?
CC(C)CCNC(=O)C(c1ccco1)N(Cc1ccc(F)cc1)C(=O)c1snc(C(N)=O)c1N (stereo not given)
    i | -15% | -1% | -12% | 218%[activator] | i | -14% | i | -16% | 5%
O=CCCCC=O
    · | -4% | · | 4% | · | · | 2% | · | 46% | -16%

Compounds above containing a halogen:
Order of values: Rhodamine autofl | Caspase-1 inhib | Luciferase inh | HADH2 inhib | USP2a inh | Fluorescein autfl | Caspase-7 inhib | Texas Red fluor | Tau fil binding | ERK AVP block
O=[N+]([O-])c1ccc(F)cc1F
    · | -2% | · | 0% | · | · | -1% | · | 15% | 10%
N=c1n(CCN2CCOCC2)c2ccccc2n1CC(=O)c1ccc(Cl)c(Cl)c1
    i | -5% | 2% | 10% | 10% | ? | -3% | i | 151% | ?
Fc1ccc(-c2cc3nc(-c4ccccc4)cc(N4CCOCC4)n3n2)cc1
    i | -5% | -1% | 10µM* | 10% | i | -5% | i | 11% | -1%
C=CCN1CCc2c(cc(O)c(O)c2Cl)C(c2cccc(C)c2)C1 (stereo not given)
    · | -1% | · | 0.25µM* | · | · | -1% | · | · | -14%
NS(=O)(=O)c1cc2c(cc1Cl)NC(C1C[C@H]3C=C[C@@H]1C3)NS2(=O)=O (stereo not given in full)
    i | · | 0%[25.5 µM] | · | · | i | · | i | · | ·
Nc1ccc(S(=O)(=O)Nc2ccc(Cl)nn2)cc1
    i | 7% | 3%[25.5 µM] | 7%[25.6 µM] | -10% | ? | -1% | i | -19%[25.6 µM] | 0%
O=C1C(=O)c2ccccc2C(O)=C1C1CCC(c2ccc(Cl)cc2)CC1 (stereo not given)
    i | -1% | 10%[25.5 µM] | 7%[25.6 µM] | 11% | i | -2% | i | -18%[25.6 µM] | -32%
O=C(NCC(=O)N(CC1CCCO1)C(C(=O)NC1CCCC1)c1ccc(F)cc1)c1ccco1 (stereo not given)
    i | 0% | 2% | 11% | 8% | ? | -1% | i | -1% | -9%
CC(C)CCNC(=O)C(c1ccco1)N(Cc1ccc(F)cc1)C(=O)c1snc(C(N)=O)c1N (stereo not given)
    i | -15% | -1% | -12% | 218%[activator] | i | -14% | i | -16% | 5%
